# Compound activity from PubChem BioAssay.
# Autofluor counter: flagged as autofluorescent in microsphere protease counterscreen; compound autofluorescence counterscreen, microsphere flow cytometry; active compounds read high; fluorescence intensity (concentration not given with the values); 360,000 tested, 3.1% active; AID 624483;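 active = at least 3 SD above the mean of all compounds, about 16000 in these data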;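 note: 100 nL of 1 mM stock went into each well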
# Mtb hypoxia inh: inhibitors of hypoxia-regulated fluorescent reporter in Mycobacterium tuberculosis | fluorescence inhibition, % (concentration not given with the values) | M. tuberculosis hypoxia-regulated fluorescent reporter, fluorescence | 300,000 tested, 0.1% active;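 active = 35 to 45% if threefold the growth effect, above 45% if 1.5-fold the growth effect; inactive = the rest, general growth blockers included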;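 note: wells of about 50 µL received 100 nL stock; 0% = vehicle wells and 100% = reference inhibitor wells; whole bacteria with a GFP reporter of the hypoxia response; strong numbers were not always called active; many hits fall short of the cut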
# ugtP null kill: growth inhibition of S. aureus ugtP deletion strain. S. aureus RN4220 ugtP deletion, OD600 growth, 16 h; some inactives read as strong as hits. 330,000 tested, 0.54% active. growth inhibition, % (test concentration not listed);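 active = z-score under -3 and OD600 up to 0.15 on both plates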;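 note: plate controls were untreated wells for no effect and antibiotic for full effect; wells of about 80 µL received 100 nL stock; the first replicate is given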
# PrP 5UTR inh: suppresses PrP 5' UTR mRNA reporter expression | cell-based PrP 5' UTR mRNA reporter, plate reader | inhibition, % (concentration not given with the values) | 340,000 tested, 0.35% active | AID 488862;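 active = every replicate at 50% or more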;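 note: 0 = median of the neutral control wells; tested in H4 reporter cells; numbers are from one replicate; inactives centre near -14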
# BJeLR viability: kills HRASV12-expressing BJeLR cells | BJeLR (HRASV12) viability, CellTiter-Glo ATP luminescence, 48 h; reference of the scale not given here | inhibition, % (test concentration not listed) | 300,000 tested, 0.17% active | AID 1554;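 active = replicate mean above 50%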;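 note: 50 nL library stock added to about 25 µL; numbers are from one replicate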
# RN4220 kill: S. aureus RN4220 growth inhibition. OD600, 16 h. inhibition, % (concentration not given with the values). 330,000 tested, 0.33% active;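 active = z-score of -3 or lower and OD600 up to 0.18 on both plates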;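 note: plate controls were untreated cells for no effect and reference antibiotic for full effect; stock transfer was 100 nL into about 80 µL; one replicate is shown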
# Mtb hypoxia inh growth: recorded beside Mtb hypoxia inh, whose call it bears; growth inhibition, %; measured here: M. tuberculosis growth (absorbance);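 0% = vehicle and 100% = reference antibiotic; read after six days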
# An asterisk follows results filed as active; nt = not tested or not shown. Compounds were not picked by outcome (roughly 4.1% active in at least one column).
Molecule	Autofluor counter	Mtb hypoxia inh	Mtb hypoxia inh growth	ugtP null kill	PrP 5UTR inh	BJeLR viability	RN4220 kill
CC1Cc2ccccc2N1c1ncnc2c1nnn2Cc1ccccc1 (stereo unspecified)	11723	6	7	20	-22	-4	-5.5
O=C(COc1ccccc1Cl)NCCCN1CCOCC1	4838	5	5	-4	-5	-4	5.5
O=C(Nc1cccc(C(=O)O)c1)Nc1ccc2c(c1)OCO2	4603	nt	nt	nt	84*	-1	nt
CC(C)(C)c1ccc(Cc2n[nH]c(=S)[nH]c2=O)cc1	3312	9	5	-2	-2	-3	13
CC1(C(=O)O)Sc2[nH]c(=O)sc2C2c3ccccc3OC(=O)C21 (stereo unspecified)	2942	8	3	-6	5	15	-6.1
O=C(Nc1nc(COc2ccccc2)cs1)C12CC3CC(CC(C3)C1)C2	24492*	-6	6	-56	-35	6	-19
N#Cc1ccccc1Cn1cc(C(=O)c2cccs2)c2ccccc21	2923	nt	nt	-4	5	5	6.6
COc1ccc(S(=O)(=O)N2CCC(NC(=O)N3CCOCC3)CC2)cc1	4018	2	2	0	-10	1	-1.6
O=C(O)c1cc(NN=Cc2ccc(-c3ccc(F)cc3)o2)ccc1Cl	nt	17	8	0	nt	nt	7.2
Cc1cc(Cl)ccc1OCC(O)CNCCc1ccc(S(N)(=O)=O)cc1 (stereo unspecified)	3080	8	1	-7	9	-2	-0.4
CCCCC(=O)Nc1ccc2c(c1)nc(CCN1CCN(C)CC1)n2C	4231	9	4	2	-16	-1	1.2
O=C(COC(=O)CN1C(=O)C2CCCCC2C1=O)Nc1ccc(S(=O)(=O)N2CCOCC2)cc1 (stereo unspecified)	2195	13	6	12	-17	0	0.5
Cc1occc1C(=O)NC1CCCCCC1	4624	nt	nt	1	-3	0	-1.0
CCOc1ccc(C(CC(=O)O)NC(=O)C2c3ccccc3Oc3ccccc32)cc1 (stereo unspecified)	2186	2	-6	3	-19	-1	5.7
CCOC(=O)c1cccc(NC(=O)CCc2nnc3ccc(N4CCN(C)CC4)nn23)c1	5926	20	6	-2	-27	11	5.3
Cc1noc(C)c1COC(=O)C1CC(O)CN1S(=O)(=O)c1ccc(Cl)cc1 (stereo unspecified)	4422	4	6	-1	-9	-15	1.6
CC(C)c1cc(C(=O)N2CCCC(N3CCN(c4ccc(F)cc4)CC3)C2)no1 (stereo unspecified)	5577	3	8	0	-9	2	-0.7
Cc1c(-c2cc(Br)ccc2O)nc2cc3c(cc2c1C)OCO3	4033	4	5	5	-13	5	-3.1
O=C(CC1SC(N2CCCCC2)=NC1=O)Nc1cccc(C(=O)NCc2ccc(F)cc2)c1 (stereo unspecified)	4740	2	-6	3	-23	nt	0.7
COc1ccccc1NC(=S)NC(=O)Cc1ccccc1	5361	8	1	15	nt	-8	4.1
Cc1ccc(O)c(NC(=S)NC(=O)CC(C)C)c1	1969	11	10	20	-37	-20	1.0
Cc1cc(C)n(CC(C)C(=O)O)n1 (stereo unspecified)	3938	8	11	17	-15	1	2.9
O=[N+]([O-])c1ccc(N2CCN(c3cccc(Cl)c3)CC2)nc1	3299	0	-7	2	-15	-10	3.6
COc1ccc(C(=O)N[C@H](C(=O)OCC(=O)NC(=O)c2cccn2C)C(C)C)cc1	2771	12	5	3	-12	-15	2.0
Cc1c(Cl)cccc1Nc1nc(N)nc(CSc2ncccn2)n1	20532*	1	4	2	-33	-9	4.6
CCOc1cc(/C=C(\C#N)c2[nH]nc(N)c2C#N)ccc1O	23984*	nt	nt	nt	1	-2	nt
CCOc1ccc(Oc2ccc(-c3nnc(-c4ccccc4)o3)cc2[N+](=O)[O-])cc1	4912	19	11	3	-24	-3	3.6
O=C(COC(=O)/C(=C/c1cccs1)c1cccs1)NC(c1ccccc1)c1ccccc1	2162	nt	nt	7	-18	-7	-1.1
CN(C)c1nc(N)nc(Cn2ccnc2)n1	3772	1	7	2	-14	5	0.8
CC(NC(=O)COC(=O)c1ccc2ccccc2n1)c1ccccc1 (stereo unspecified)	7594	5	12	3	-13	nt	4.2
CCOC(=O)c1ccccc1N/C=C1\CCCC1=O	10554	9	20	-9	-21	-5	19
Cc1ccccc1-c1nc2sc(-c3ccccc3)cc2c(=O)o1	17440*	7	11	-1	-37	3	0.3
COc1ccc(-c2cc(C(=O)NN=Cc3cccnc3)c3ccccc3n2)cc1	nt	4	5	12	nt	nt	0.2
Cc1ncc([N+](=O)[O-])n1Cc1ccc(F)cc1	3993	-4	5	-2	-17	35	-0.3
COc1cc(C2NC(=O)NC(C)=C2C(=O)OC2CCCCC2)cc(Cl)c1O (stereo unspecified)	3868	-12	3	-11	-5	-15	0.3
COC(=O)C1=C(Cn2cnc3ccccc32)NC(=O)NC1c1cc(C)ccc1C (stereo unspecified)	3795	nt	nt	4	2	0	1.6
CN(C)N=Cc1c(O)ccc2ccccc12	nt	2	1	-7	nt	nt	11
COc1cc(NS(=O)(=O)c2ccc(NC(=S)NC(=O)c3sc4ccccc4c3Cl)cc2)nc(OC)n1	5555	5	6	-5	-9	5	1.7
CCn1cc(CNC(=O)/C=C/c2ccc([N+](=O)[O-])cc2)cn1	10924	4	7	17	8	-16	-1.7
CCN(CC)C(=O)[C@H]1C[C@H](CC(=O)NCCCn2ccnc2)C(=O)N2CCc3c([nH]c4cc(CCC(=O)N(C)C)ccc34)[C@]12C	3657	-3	-3	0	-12	nt	1.2
COc1ccc(/C=C/C(=O)OCC(=O)NC(=O)NC(C)(C)C)cc1	4365	16	13	5	-36	3	2.2
O=C(/C=C/c1c(Cl)nc2ccccn12)Nc1ccc(F)cc1	3486	1	-8	-5	-60	-9	7.6
O=C(OCC(=O)c1ccc[nH]1)c1ccc(S(=O)(=O)N2CCCCCC2)cc1	2754	nt	nt	-5	-21	1	2.9
Cc1cccc(CC(=O)Nc2cccnc2)c1	3005	0	-4	20	-6	11	3.6
COc1cc(OC)c2c(-c3ccccc3)cc(=O)oc2c1C(CC(=O)N1CCCC1)c1ccc2c(c1)OCO2 (stereo unspecified)	3568	9	10	28	-18	-8	3.6
Cc1ccc2nc(N(CCCN(C)C)C(=O)c3cc4ccccc4oc3=O)sc2c1	11260	9	-1	6	-30	-11	-0.3
S=c1[nH]nc(-c2ccccc2Cl)n1N=C/C=C/c1ccco1	nt	5	-6	11	nt	nt	8.5
O=C(CC(=O)c1ccncc1)c1ccccc1	3960	21	6	6	-8	nt	5.6
Cc1ccc(/C=C/C(=O)NC2CCCCCCC2)o1	2027	nt	nt	2	-63	16	2.7
COc1ccc(C(=O)OC(C)C(=O)NC2CCCCC2C)cc1S(=O)(=O)N1CCOCC1 (stereo unspecified)	6099	2	5	6	-25	4	1.7

# Additional results follow:
Molecule	Autofluor counter	Mtb hypoxia inh	Mtb hypoxia inh growth	ugtP null kill	PrP 5UTR inh	BJeLR viability	RN4220 kill
Cc1ccc(-c2noc(CN(C(=O)C(c3ccccc3)c3ccccc3)C(C)C)n2)cc1	23813*	6	8	-9	-3	-3	-0.9
Fc1cccc(NC(=S)N2CCCC2)c1	2345	0	-1	15	-14	5	0.5
COc1ccc(/C=N/NC(=O)Cn2c(Cc3ccc(OC)c(OC)c3)nc3ccccc32)cc1OC	2389	nt	nt	nt	-9	-2	nt
COc1ccc(Cc2nnc(N/N=C/c3ccc(N(C)C)cc3)[nH]c2=O)cc1OC	4887	nt	nt	nt	-3	-16	nt
O=C(COC(=O)c1ccc2c(=O)n3c(nc2c1)CCC3)Nc1ccc(OC(F)F)cc1	4151	4	3	2	-7	0	5.2
CCCCCC(=O)N1CCCC(c2nc(-c3ccc(OC)cc3)no2)C1 (stereo unspecified)	3666	18	10	6	-8	8	4.0
COc1ccc(-c2n[nH]c(=S)n2-c2ccc3c(c2)OCCO3)cc1OC	5042	-4	3	-8	-69	-11	-0.1
CC(C)C(C(=O)Nc1ccc(S(=O)(=O)N2CCOCC2)cc1)N1C(=O)c2ccccc2C1=O (stereo unspecified)	11117	-13	13	-3	-7	-11	-2.3
O=C(c1cc2cc(Cl)ccc2oc1=O)N1CCCCCCC1	3645	15	15	1	-19	3	3.1
CCOC(=O)c1ccc2nc(C)c3c(c2c1)OC(C)C3 (stereo unspecified)	3123	14	6	-16	-7	-3	-9.8
CC1CCCCN1CC(=O)Nc1ccc(Oc2ccccc2)cc1 (stereo unspecified)	3115	nt	nt	-1	-9	-1	-12
Cc1oc(-c2cccc(F)c2)nc1CN1CCCN(C(=O)c2ccco2)CC1	5700	6	4	8	-1	-1	2.8
Cc1cc(C)c(-n2c(SCc3nc4ccccc4s3)n[nH]c2=O)c(C)c1	3520	21	-1	-3	-13	3	4.2
COc1ccc(S(=O)(=O)N(C)CC(=O)N2CCN(c3ccc(F)cc3)CC2)cc1OC	10591	5	9	3	-42	2	3.5
Cc1ccc2oc(-c3ccco3)cc(=O)c2c1	3807	8	12	6	-75	-1	3.0
COc1ccc(NC(=O)Cn2cnc3ccccc3c2=O)cc1OC	3947	15	7	3	-10	8	3.9
O=C(c1ccco1)N1CCN(Cc2ccccc2F)CC1	3276	-2	-3	0	-13	-5	4.5
CC1CCN(S(=O)(=O)c2ccc(NC(=O)CN3C(=O)NC(C)(c4ccccc4)C3=O)cc2)CC1 (stereo unspecified)	5974	9	4	14	-14	5	-0.6
CCOCCCNCc1ccc(OCCC(C)C)c(OC)c1	3899	6	-2	6	-30	3	1.7
O=C(NC1=NCCS1)c1ccc(C(F)(F)F)cc1	3843	2	-4	4	-36	-13	0.9
NCC/C=C1/c2ccccc2CSc2ccccc21	4662	17	1	13	-10	11	-1.6
C=C(C)COc1ccc(-c2[nH]ncc2Oc2ccc(OC)cc2)c(O)c1	4552	7	7	29	-15	-13	-21
CC(=O)c1ccc(N2CCN(S(=O)(=O)c3ccc(-c4cnc(C5CC5)o4)cc3)CC2)cc1	6015	10	-6	4	-40	-3	4.6
Cc1ccc(NC(=S)NCCc2ccc(Cl)cc2)c(C)c1	3565	-6	-2	11	-6	-4	4.9
Cc1ccc(N2CC(C(=O)Nc3ccc(S(=O)(=O)Nc4nccs4)cc3)CC2=O)cc1C (stereo unspecified)	3361	23	21	3	-3	1	4.8
O=C(c1ccc(Cl)cc1)N1CCN(C(=O)C2CCCCC2)CC1	4476	nt	nt	nt	-10	7	nt
COc1ccc(C(=O)C2CCN(C(=O)c3ccc(F)cc3)CC2)cc1	3654	11	3	8	-22	3	-2.4
CC(=O)Nc1cccc(NC(=O)CSc2nnc3ccc(-c4cccnc4)nn23)c1	3906	0	-4	11	6	-3	4.4
CS(=O)(=O)N(CCc1ccccc1)CC(=O)NCc1ccccc1Cl	4071	4	9	3	-18	0	1.8
Cn1c(SCC(=O)NN=Cc2ccc([N+](=O)[O-])s2)nnc1-c1ccc(Cl)cc1	nt	9	4	8	nt	nt	12
Cc1ccc(-n2ncc3c2CC(C)(C)CC3NC(=O)c2c(C)noc2C)cc1 (stereo unspecified)	4306	5	0	13	-5	3	4.7
O=C(NC1CC1)C1=C[C@H](c2coc3ccccc3c2=O)C[C@H](OCc2ccc(CO)cc2)O1	4015	nt	nt	nt	-7	0	nt
Cc1ccc(S(=O)(=O)N2CCN(CC(=O)NN=Cc3cccnc3)CC2)cc1	nt	13	1	6	nt	nt	1.8
CCc1ccccc1NC(=S)N(CCN(C)C)Cc1cccs1	4217	-6	4	-6	-11	-10	-0.2
Cc1ccc2nc3c(c(C(=O)OCC(=O)N(C)C4CCS(=O)(=O)C4)c2c1)CCCC3 (stereo unspecified)	4225	-3	-4	-14	-2	0	5.1
